VACV Venus inh: inhibitors of vaccinia virus (Venus reporter) | 330,000 tested, 0.46% active | Potency, µM (top dose mostly 36.5 µM), without a hit: at the highest dose activity change, negative = inhibition, actives largely listed as inhibitors | Vaccinia virus Venus reporter expression, fluorescence | AID 720580; active means well fitted inhibition curve with a large enough effect; inconclusive means small, poorly fitted or top-dose-only effect; inactive means no such curve, though single readings can be large or run the other way; tested in A549 cells; further: nearly all actives have a fitted effect of over 30% in size; inactives centre near -10
VACV mCherry inh: inhibitors of vaccinia virus infection (mCherry reporter signal). Vaccinia virus mCherry reporter infection, fluorescence; about a quarter of the inactives have no number. Potency, µM (series often up to 36.5 µM), inactives show at the highest dose activity change, negative = inhibition, actives largely listed as inhibitors. 310,000 tested, 0.63% active; active = well fitted inhibition curve with a large enough effect; inconclusive = small, poorly fitted or top-dose-only effect; inactive = no such curve, though single readings can be large or run the other way; tested in A549 cells; further: nearly all actives have a fitted effect of over 35% in size; inactives centre near -10
An asterisk follows results filed as active; i = inactive; ? = inconclusive; / = not tested or not shown; [ ] = another dose, or the depositor's remark. On the % scale 0 is the no-effect control and ±100 the full control effect; potency means the concentration at half of the fitted maximal effect.

SMILES,VACV Venus inh,VACV mCherry inh
Nc1ccccc1C(=O)CC(N)C(=O)O (configuration not stated),27%,18%
COC1=CC(=O)OC(c2ccc(C(F)(F)F)cc2)C1 (configuration not stated),-4%,-26%
C/C(=N\NC(=O)CSCc1ccccc1Cl)c1cccc(NC(=O)c2ccccc2)c1,?,-16%
CCc1ccccc1NS(=O)(=O)c1ccc(NC(=O)N2CCCC2)cc1,-10%,-15%
CCCOC1CCCN(C(=O)CCc2nnc(Cc3cccc(C)c3)o2)C1 (configuration not stated),-7%,i
COc1ccc(OC)c(-n2c(O)c(/C=C3\C(C)=Nc4ccccc43)c(=O)[nH]c2=O)c1,6%,-1%
CCC(C)C(NC(=O)c1ccccc1NC(=O)c1ccc(OC)cc1)C(=O)NCc1ccco1 (configuration not stated),-15%,-5%
COc1ccc(C(=O)N(Cc2ccccc2)c2cccc(C)c2)cc1S(=O)(=O)N1CCOCC1,-9%,-7%
CCCCCn1c(=O)[nH]c2cc(C(=O)N3CCN(c4ccc(F)cc4)CC3)ccc2c1=O,6%,-7%
O=[N+]([O-])c1cccc(-c2nc(-c3ccccc3)no2)c1,0%,-9%
COc1cccc(NC(=O)CN(C)C(=O)CCc2nc3sc4c(c3c(=O)[nH]2)CCCC4)c1,-25%,?
COCCCNCCCOc1ccc(C)cc1Br,2%,-5%
CCOc1ccc(Sc2cc(C(=O)NCCCOC)c3ccccc3n2)cc1,-4%,-7%
O=C1Nc2cc3c(cc2C1=O)sc1ccccc13,8%,-10%
O=C(NC1CCCCCC1)c1cccnc1Sc1ccccc1,-29%,-9%
Cc1cc(NC(=O)C2CC(=O)N(c3ccccc3C)C2)no1 (configuration not stated),7%,6%
CC12CN3CC(C)(CN(C1)C3c1ccc([N+](=O)[O-])o1)C2 (configuration not stated),4%,i
NC(=O)C1CCN(CC(=O)NCc2ccccc2)CC1,-1%,-8%
CN(Cc1ccccc1)C(=O)c1ccc(Cl)c([N+](=O)[O-])c1,-7%,-12%
COc1ccc(CN(C)C(=O)C23CC4CC(CC(Cl)(C4)C2)C3)c(OC)c1OC,1%,-2%
COc1ccc(S(=O)(=O)NCCSc2ccc(C)cc2)cc1OC,-25%,/
O=C1CCCN1c1ccc(S(=O)(=O)N2CCCCC2)cc1[N+](=O)[O-],-11%,-10%
O=C(CSc1nc(=O)n(CCCN2CCOCC2)c2c1CCC2)Nc1ccc(F)cc1,-20%,i
COC(=O)C1(C(=O)OC)C[C@H](/C=C/c2ccccc2)N(Cc2ccccc2OC)[C@@H]1c1ccccc1,-5%,?
Cc1c(C(=O)N2CCC(c3nc4ccccc4s3)CC2)oc2ccc(Cl)cc12,-4%,-11%
C[C@@H]1CCCCO[C@@H](CN(C)C(=O)Nc2ccccc2)[C@@H](C)CN([C@H](C)CO)C(=O)c2cc(N(C)C)ccc2O1,10%,-15%
Cc1cc(NC(=O)c2ccc3c(c2)C(=O)N(Cc2ccccc2)C3=O)no1,4%,i
Cc1cccc(OC(=O)c2cc(-c3ccc(C)c(C)c3)on2)c1,-5%,-1%
COc1ccc(NC(=O)CN(C)C(=O)/C=C/c2cn(-c3ccccc3)nc2-c2cccs2)cc1,?,-18%
Cc1nc(NS(=O)(=O)c2ccc(Br)cc2)c2c3c(sc2n1)CCC3,-10%,/
COc1ccc(-n2nc3c(N4CCCC(C(=O)NCCc5ccc(C)cc5)C4)nnc(C)c3c2C)cc1 (configuration not stated),?,?
Nc1ccc(-n2nc3ccccc3n2)cc1,-2%,?
CCOC(=O)c1c(NC(=O)c2ccn(CC)n2)sc2c1CCC2,?,?
C[C@@H]1CC=C[C@H]2[C@H]1C(=O)N(Cc1ccccc1)[C@H]2c1ccc(-c2ccoc2)cc1F,-15%,-30%
COc1ccc(NC(=O)Nc2cccc3c2O[C@H](CN(C)C(=O)Nc2ccc(C(F)(F)F)cc2)[C@@H](C)CN([C@H](C)CO)C3=O)cc1,?,-22%
CCOC(=O)C1=CCN(S(=O)(=O)c2cccc(Cl)c2)C1c1ccccc1 (configuration not stated),-7%,5%
O=C(COC(=O)C1CCC1)Nc1ccc(OC(F)F)cc1,-14%,-22%
CCN(c1ccccc1)S(=O)(=O)c1ccc(F)c(C(=O)O)c1,-3%,i
COc1ccc(CCNC(=O)c2ccc(Cn3c(=O)c4ccccc4n(Cc4cc(C)ccc4C)c3=O)cc2)cc1OC,0%,-8%
CN(C)c1nc(N(C)C)n(C(=O)c2cccs2)n1,-4%,-3%
COCCCNC(=O)/C=C1\Sc2ccccc2N(Cc2ccccc2F)C1=O,-5%,-19%
CCN(c1ccc(OC)cc1)S(=O)(=O)c1ccc2[nH]c(=O)ccc2c1,-4%,-3%
COc1cccc(C2=NNC(=NCc3ccccc3)SC2)c1,-18%,?
Cc1ccc(NC(=O)C(C)NS(=O)(=O)c2ccc(F)cc2)cc1C (configuration not stated),-9%,-3%
Cc1ccc(NC(=O)c2sc3nc4n(c(=O)c3c2C)CCCCC4)c(Br)c1,-9%,1%
Cn1c(=O)n(-c2ccc(F)c(Cl)c2)c(=O)c2sc3ccccc3c21,-3%,7%
COc1cccc(-c2nc(NCC3CCCO3)c3ccccc3n2)c1O (configuration not stated),?,?
CCN(C(=O)COC(=O)/C=C/c1c(C)nn(Cc2ccc(C)cc2)c1C)C1CCS(=O)(=O)C1 (configuration not stated),-17%,-2%
O=C1c2ccccc2C(=O)c2c1ccc1c(=O)n(-c3ccccc3)[nH]c21,-2%,-11%
CCN(CC)C(=O)CSc1nnc(-c2cc(OC)cc(OC)c2)o1,?,?
CC(=O)CC1(O)C(=O)N(CN2CCN(c3ccccc3)CC2)c2ccccc21 (configuration not stated),0%,i
NC(=O)C1CCN(C(=O)c2cccc(S(=O)(=O)N3CCCC3)c2)CC1,-11%,i
COC(=O)C1=C(C)NC(C)=C(C(=O)OC)C1/C=C/c1ccccc1,-5%,-1%
Cc1nc(-c2cc(C#N)c(Sc3ccc(Cl)cc3Cl)nc2C)cs1,-5%[7.34 µM],-23%[7.34 µM]
Cc1ccc2[nH]c(=O)c(COC(=O)C3CCCO3)cc2c1 (configuration not stated),?,/
Cc1cccc(-n2ncc(C(=O)N3CCC(C)CC3)c2C2CCN(C(=O)OC(C)(C)C)CC2)c1,-10%,i
Cc1ccc(NC(=O)Cn2c([N+](=O)[O-])cnc2C)cc1,-2%,-17%
COc1ccc(S(=O)(=O)N2CCN(C(=O)c3cc(-c4ccc(Br)cc4)n[nH]3)CC2)cc1OC,?,-20%
COc1cc(C)nc(Oc2ccc(OCc3ccccc3)nn2)n1,-6%,-4%
CC(=O)c1cccc(-c2ccnc3c2CC(C(=O)Nc2cccnc2)O3)c1 (configuration not stated),-17%,-2%

Next section:
SMILES,VACV Venus inh,VACV mCherry inh
N#C/C(=C/c1ccc([N+](=O)[O-])cc1)C(=O)Nc1ccccc1O,-16%,-17%
O=C(Nc1ccccc1NC(=O)c1c(F)cccc1F)c1c(F)cccc1F,-11%,i
COC(=O)C1=C(C)N2C(=O)CSC2=NC1c1ccc2c(c1)OCO2 (configuration not stated),12%,2%
COc1ccc(C2c3c(oc4ccc(C)cc4c3=O)C(=O)N2CCCN2CCOCC2)cc1OC (configuration not stated),-7%,-17%
Cc1cc(=O)c(C(=O)NCCCc2ccncc2)c2n1-c1ccccc1SC(c1cccs1)C2 (configuration not stated),-4%,-6%
CCN(CC)c1c(C)nc2ccc(C(=O)N3CCN(C(=O)c4ccco4)CC3)cn12,1%,6%
CCOc1ccc(C2/C(=C(/O)c3ccc4c(c3)CC(C)O4)C(=O)C(=O)N2CC2CCCO2)cc1 (configuration not stated),-16%,i
COc1ccc(/C=N/Nc2cc(C)nc(-n3nc(C)cc3C)n2)cc1,?,?
CN1C[C@H](CNC(=O)OCc2ccccc2)C[C@@H]2c3cccc4c3c(cn4C)C[C@H]21,-26%,-17%
Cc1nnc(SCC(=O)Nc2cccc(C(F)(F)F)c2)[nH]c1=O,-12%,/
COCCNC(=S)N1CCC(C(=O)c2ccc3c(c2)OCCO3)CC1,-6%,i
COc1ccnc(Oc2ccccc2)c1-c1ncn[nH]1,-18%,-3%

Of the compounds above, 9 have a thiophene ring, fused or not.
SMILES,VACV Venus inh,VACV mCherry inh
COc1cccc(NC(=O)CN(C)C(=O)CCc2nc3sc4c(c3c(=O)[nH]2)CCCC4)c1,-25%,?
O=C1Nc2cc3c(cc2C1=O)sc1ccccc13,8%,-10%
COc1ccc(NC(=O)CN(C)C(=O)/C=C/c2cn(-c3ccccc3)nc2-c2cccs2)cc1,?,-18%
Cc1nc(NS(=O)(=O)c2ccc(Br)cc2)c2c3c(sc2n1)CCC3,-10%,/
CCOC(=O)c1c(NC(=O)c2ccn(CC)n2)sc2c1CCC2,?,?
CN(C)c1nc(N(C)C)n(C(=O)c2cccs2)n1,-4%,-3%
Cc1ccc(NC(=O)c2sc3nc4n(c(=O)c3c2C)CCCCC4)c(Br)c1,-9%,1%
Cn1c(=O)n(-c2ccc(F)c(Cl)c2)c(=O)c2sc3ccccc3c21,-3%,7%
Cc1cc(=O)c(C(=O)NCCCc2ccncc2)c2n1-c1ccccc1SC(c1cccs1)C2 (configuration not stated),-4%,-6%

Additional records follow.
SMILES,VACV Venus inh,VACV mCherry inh
COc1cc2c(cc1OCc1ccccc1)/C(=C/C(=O)OCc1ccccc1)OC2,-26%,-15%
CCNC(=O)C12CCC(C)(C(=O)C1Br)C2(C)C (configuration not stated),1%,-1%
Cc1ccc(C(=O)N(Cc2cc3cccc(C)c3nc2N(C)C)CC2CCCO2)cc1 (configuration not stated),0%,-3%
Cc1cc(NC(=O)c2ccc(S(=O)(=O)N(C)CC3CCCO3)cc2)no1 (configuration not stated),4%,-14%
CCc1cccc(Nc2ncnc3onc(-c4ccc(F)cc4)c23)c1,0%,-1%
CCCn1c(N)c(C(=O)CSc2ncn[nH]2)c(=O)n(C)c1=O,-8%,i
CCOc1cc(-c2nnc(SCC(=O)NCc3ccccc3)nc2-c2ccc(OC)c(OCC)c2)ccc1OC,?,?
CCOc1ccccc1N(CC(=O)NC1CCCC1)S(=O)(=O)c1ccc(C)cc1,-16%,-23%
COc1ccc(Cc2nnc(NC(=O)c3ccco3)s2)cc1OC,1%,-8%
CCC(C)NC(=O)Cn1c(=O)n(-c2ccc(C)c(C)c2)c(=O)c2c(C)c(C(=O)N(CC)CC)sc21 (configuration not stated),0%,-9%
O=C1C=CC(=O)N1c1ccc2ccccc2c1,5%,-21%
O=C(NCC(c1ccc2c(c1)OCO2)N1CCN(c2ccccc2)CC1)C(=O)Nc1ccccc1F (configuration not stated),-9%,-14%
N#Cc1cccc(-c2csc(C(O)c3ccc(F)cc3)n2)c1 (configuration not stated),-17%,i
O=C(NCc1ccc(Cl)cc1)c1cccc2c1C(=O)N(CC1CCCO1)C2 (configuration not stated),-19%,-2%
CN(Cc1cccc(C(F)(F)F)c1)Cc1nc(-c2cnccn2)no1,-21%,i
Cc1cccc(NC(=O)CSc2nc3c(oc4ccccc43)c(=O)n2C(C)C)c1,-7%,-16%
CCC1CCCCN1C(=O)c1cc(-c2ccc(Cl)c(Cl)c2)on1 (configuration not stated),-8%,-11%
COc1ccc(S(=O)(=O)n2nc(C)c(S(=O)(=O)N3CCCCCC3)c2C)cc1,-5%,-4%
COc1cc(NC(=O)c2ccc(NC(=O)N3CCSc4ncccc43)cc2)cc(OC)c1,-7%,-4%
CC(C)=C1Cc2ccccc2C1=O,-8%,-2%
O=C(NCc1cccnc1)c1cn(-c2ccccc2)nc1-c1ccccc1,-2%,-3%
Cc1ccc(-n2c(SCC(=O)Nc3ncc(Cl)cc3Cl)nc3ccccc32)cc1,?,?
COc1ccccc1NC(=O)CSc1oc(-c2cccs2)nc1S(=O)(=O)c1ccc(Br)cc1,-16%,-21%
Cc1cc(C)cc(OC(C)C(=O)NCCCn2ccnc2)c1 (configuration not stated),-3%,i
COc1cccc(C(=O)CC(C#N)c2ccc(F)cc2)c1 (configuration not stated),-15%,i
CCOc1ccc(N2CC(C(=O)Nc3ccncc3)CC2=O)cc1 (configuration not stated),-8%,-5%
COC(=O)C(C(=O)Nc1nc2ccccc2s1)C1CCCC1 (configuration not stated),-5%,i
CN1CCc2c(OCC(=O)N3CCC(Cc4ccccc4)CC3)cccc2C1=O,-27%,?
COc1ccc(N2CCN(S(=O)(=O)c3ccc4c(c3)CC(C)N4C(C)=O)CC2)cc1 (configuration not stated),-15%[7.34 µM],-7%[7.34 µM]
CCCc1[nH]nc2c1C1(CCN(C(=O)OCc3ccccc3)CC1)C(C#N)=C(N)O2,-8%,-7%
Cc1ccc(N(C)S(=O)(=O)c2cccc(C(=O)NC3=NCCS3)c2)cc1,?,?
Cc1ccn(S(=O)(=O)c2ccc(N3CCCC3=O)cc2)n1,-8%,-5%

Assay outcomes as filed in PubChem BioAssay.
